Assay outcomes: PubChem BioAssay, several laboratories
Hsc70: Hsc70 inhibitors, probe displacement, primary screen, biochemical, fluorescence polarization (AID 568); Hsc70 fluorescence polarization, probe displacement; higher % means a stronger effect; strong numbers were not always called active; displacement, % at 20 µM; hits with a dose series show IC50 in µM; 83,000 tested, under 10 active;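 active means displacement above 50% without optical interference and an IC50 on retest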;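 further: ATPase domain with a fluorescein-tagged ATP probe; 0% = vehicle and 100% = excess ADP; read after one hour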
WNV NS2B-NS3 inh: WNV NS2B-NS3 proteinase inhibition | P06935 | WNV NS2B-NS3 protease, fluorogenic substrate Ex360/Em465; stronger effect = lower value | z-score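 (tested at a level between 10 and 100 µM)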 | 65,000 tested, 0.18% active;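 active means z-score at -3 or under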;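 further: score is relative to mean and spread of the compound wells of a plate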
Target sequence (P06935 1371-1501 limits assumed): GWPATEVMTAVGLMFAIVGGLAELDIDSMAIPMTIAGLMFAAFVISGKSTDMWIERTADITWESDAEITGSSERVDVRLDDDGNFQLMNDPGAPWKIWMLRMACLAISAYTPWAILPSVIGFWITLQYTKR
Target sequence (P06935 1502-1679 limits assumed): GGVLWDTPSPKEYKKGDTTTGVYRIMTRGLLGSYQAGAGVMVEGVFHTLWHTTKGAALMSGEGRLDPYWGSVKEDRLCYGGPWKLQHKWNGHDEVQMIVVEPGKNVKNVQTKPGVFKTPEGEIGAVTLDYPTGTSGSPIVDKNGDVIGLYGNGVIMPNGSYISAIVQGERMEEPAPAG
MT1-MMP reporter: MT1-MMP gene expression reporter suppression – cell-based, luciferase reporter, luminescence (AID 618); MT1-MMP promoter luciferase reporter cells, luminescence; calls from a first round at 10 µM; hits with a dose series show EC50 in µM; 87,000 tested, 0.62% active;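 active means over half of the reporter light lost at 10 µM or EC50 under 50 µM; inactive means the rest and hits that failed the dose series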;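 further: actives suppress MT1-MMP promoter-driven transcription so potencies describe inhibitors; HT1080 fibrosarcoma cells; overnight exposure; toxic or luciferase-blocking compounds were not removed from the actives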
* hit, by the source's call; i = inactive; nt = not tested or not shown; + = active, no number.

Every second line gives: Hsc70, WNV NS2B-NS3 inh, MT1-MMP reporter
CCC(C)(C)NC(=O)C(c1cccn1C)N(Cc1ccc(C)cc1)C(=O)Cn1nnc2ccccc21 (stereo not given)
→ 4.1%, 1.02, i
N#Cc1c(NC(=O)CSc2ncc(-c3ccccc3)n2CC2CCCO2)sc2c1CCCC2 (stereo not given)
→ -3.7%, 0.46, i
COc1cccc(CNC(=O)CN(c2cc(C)cc(C)c2)S(=O)(=O)c2c(C)noc2C)c1
→ -3.3%, 0.37, i
Cc1ncc([N+](=O)[O-])n1CC(O)CCl (stereo not given)
→ 5.8%, 0.07, i
CCCOc1ccc(CC(=O)NCC2(c3ccccc3)CCOCC2)cc1OC
→ 3.1%, nt, i
COC(=O)c1ccccc1NC(=O)CN1C(=O)c2ccccc2S1(=O)=O
→ 1.8%, -0.13, i
Cc1ccc(S(=O)(=O)N2CCOCC2)cc1C(=O)Nc1nc(-c2cccnc2)cs1
→ -0.3%, -1.37, i
CC(C)(C)c1ccccc1OCCCCCNCCO
→ -0.2%, -0.89, i
CC(C)N=C(NC#N)SCc1ccc(F)cc1
→ -1.0%, -0.39, i
CCOc1ccc(N2CC(C(=O)Nc3ccccc3OC)CC2=O)cc1 (stereo not given)
→ 3.5%, 0.61, i
CCCOC1CCCN(C(=O)c2cc(Cl)c(Cl)cc2C(=O)O)C1 (stereo not given)
→ 0.0%, 0.09, i
O=C(Nc1ccc(N2CCOCC2)cc1)c1ccncc1
→ 1.3%, nt, i
Cc1cccc2cc(CN(Cc3ccco3)C(=O)c3ccncc3)c(=O)[nH]c12
→ 2.7%, -0.33, i
Cc1cc(OCn2ccc(C(=O)O)n2)ccc1Cl
→ -0.9%, -0.37, i
Cc1noc(C)c1C(=O)Nc1sc2c(c1C(N)=O)CCCCC2
→ -5.3%, -1.55, i
O=C(c1cccs1)N1CCOCC1
→ -2.6%, 0.53, i
CCOC(=O)Cn1nc(-c2ccccc2)nc1-c1ccccc1
→ 3.4%, 0.99, i
COc1ccc(NC(=O)Nc2cccc(OC)c2)cc1
→ -10.4%, 1.13, i
Cc1c(Cl)cnc(NC(=O)COC(=O)CCS(=O)(=O)c2ccccc2)c1Cl
→ 8.1%, nt, i
COc1cc(/C=N/Nc2snc(SC)c2C#N)cc(OC)c1OC
→ 3.7%, nt, i
CCCCCn1c(SCC(=O)OCC)nc2cc(C(=O)NCc3ccco3)ccc2c1=O
→ 7.3%, -0.58, i
Cc1cccc(N2CCN(C3=NC(=O)C(=C4CCCCC4)S3)CC2)c1
→ -1.6%, 1.17, i
Cc1ccc(S(=O)(=O)/N=c2\sccn2C)cc1
→ -2.4%, nt, i
Cc1ccc(-n2cccc2/C=N/n2cnnc2)cc1Cl
→ 3.2%, nt, i
Cc1ccc(NC(=O)CSc2nccn2Cc2ccccc2)cc1C
→ 4.5%, nt, i
CC(C)Oc1ccc(NC(=O)c2ccncc2)cc1
→ -2.8%, -0.47, i
Cc1nn(-c2ccccc2)c2nc(-c3ccco3)cc(C(=O)O)c12
→ 9.1%, -0.64, i
CCCCNC(=O)c1ccc(NS(=O)(=O)c2ccccc2)cc1
→ 0.7%, 0.2, i
CN(C)c1ccc(-c2nc3ccccc3n2C)cc1
→ -3.6%, -0.67, +
Cc1ccc(NC(=S)NNC(=O)C2CC2c2ccc(C)cc2)cc1 (stereo not given)
→ 6.9%, nt, i

Later entries.
Every second line gives: Hsc70, WNV NS2B-NS3 inh, MT1-MMP reporter
O=c1c2c(nc3nc(CCc4ccccc4)[nH]n13)CCC2
→ 0.9%, 0.72, i
CCc1noc2c1/C(=N\O)CC(c1ccccc1)C2 (stereo not given)
→ 7.0%, -0.08, i
Cc1ccc(C2C(C#N)=C(N)Oc3c2oc(CO)cc3=O)o1 (stereo not given)
→ -2.1%, -1.16, i
C=CCn1c(N)c(S(=O)(=O)c2cccs2)c2nc3ccccc3nc21
→ -3.2%, 1.2, i
COc1ccc(C=NC(CO)C(O)c2ccc([N+](=O)[O-])cc2)cc1 (stereo not given)
→ -4.4%, nt, i
O=S(=O)(c1ccc(F)cc1)N1CCC(N2CCN(c3ccccc3)CC2)CC1
→ 1.8%, 0.16, i
COc1cccc(-n2nnnc2SCC(=O)NCCc2ccccc2)c1
→ 0.8%, 1.39, i
COc1ccc(CNc2ccccc2SC)cc1OC
→ 2.0%, nt, i
CCCOc1ccc(C2c3c(oc4cc(C)c(C)cc4c3=O)C(=O)N2CCCN(C)C)cc1 (stereo not given)
→ 3.0%, 1.52, i
CSc1nnnn1-c1ccc(C(=O)OCC(=O)N2CCOCC2)cc1
→ -4.8%, 1.14, i
COc1ccc(CCNC(=O)Cn2cnc3c(cnn3C(C)(C)C)c2=O)cc1OC
→ -6.0%, 0.55, i
COC(=O)Cc1nnc(NC(=O)C(C)C)s1
→ -4.3%, nt, i
O=C(Nc1nc2ccc(Cl)cc2s1)c1ccco1
→ -0.5%, nt, i
CCC(=O)Nc1cc2c(cc1C(C)=O)OCCO2
→ 6.1%, nt, i
O=C(c1ccco1)N1CCN=C1SCc1cccnc1
→ -4.1%, -0.87, i
O=C1C2N=NN(CC(=O)N3N=C(c4cccc5ccccc45)CC3c3ccccc3)C2C(=O)N1c1ccccc1 (stereo not given)
→ -9.7%, nt, i
COCCCNC(=O)COc1ccc(Cl)c(C)c1
→ -1.7%, 0.49, i
COc1ccc2c(c1)CCc1c(C(=O)Nc3c(C)n(C)n(-c4ccccc4)c3=O)noc1-2
→ -0.7%, -0.15, i
Cc1ccc(-c2nc(N)n(C(=O)c3cccnc3)n2)cc1
→ 3.0%, -0.82, i
COCc1cc(=O)n2c(-c3ccccc3OC)n[nH]c2n1
→ -2.5%, 0.77, i
C=CCn1c(SCC(=O)Nc2ccc(C(=O)OCC)cc2)nnc1-c1sc(N)nc1C
→ 1.6%, -0.36, i
CC(NS(C)(=O)=O)C(c1cccs1)N1CCN(Cc2ccccc2)CC1 (stereo not given)
→ 13.0%, 0.55, i
CCc1nn(C(C)C(=O)N2CCN(Cc3ccccc3)CC2)c(=O)c2cc3occc3n12 (stereo not given)
→ 1.1%, -0.41, i
CC1CCc2c(sc3ncnc(N4CCN(S(=O)(=O)c5cccc6nonc56)CC4)c23)C1 (stereo not given)
→ -3.2%, nt, i
Cc1ccccc1/C(N)=N/OC(=O)/C=C/c1ccccc1
→ -1.5%, nt, i
O=c1c2ccccc2nc2n1CCN2Cc1ccc(Cl)cc1
→ -3.0%, -0.23, i
O=C(NCc1cccnc1)Nc1cccc(NC(=O)NCc2cccnc2)c1
→ -4.8%, -0.19, i
N#Cc1nc(-c2ccccc2F)oc1NCCc1ccccn1
→ 1.8%, 0.05, i
COC(=O)CSc1nc2sc3c(c2c(=O)n1C1CCCCC1)CCN(C)C3
→ -7.2%, 0.39, i
CCOc1ccc2nc(C)cc(C(=O)O)c2c1
→ -0.1%, 0.17, i

Further compounds follow:
Every second line gives: Hsc70, WNV NS2B-NS3 inh, MT1-MMP reporter
CCN(C(=O)CSc1nnc(-c2ccccc2Cl)n1C1CCCC1)C1CCS(=O)(=O)C1 (stereo not given)
→ 0.7%, -0.7, i
Cc1cccc(C)c1OCC(O)CNC(C)C (stereo not given)
→ 4.9%, nt, i
CCNc1nc(NCC)nc(-n2nc(C)cc2C)n1
→ -13.7%, 0.02, i
OCCN(Cc1ccccc1)CC1CCCCC1
→ 1.7%, -0.94, i
CSc1nc2nc(-c3ccccc3)cc(C(F)(F)F)n2n1
→ 1.3%, 1.92, i
CCOc1cccc(-c2nnc3sc(-c4ccco4)nn23)c1
→ -2.4%, -0.71, i
O=S(=O)(NCC1OCCc2ccccc21)c1ccc(S(=O)(=O)N2CCOCC2)cc1 (stereo not given)
→ -3.0%, 2.21, i
O=C(O)C1CCCCC1C(=O)Nc1ccc(Cl)cc1 (stereo not given)
→ -6.5%, -0.74, i
CCn1c(C(=O)Nc2ccsc2C(=O)OC)cc2sc(Cl)cc21
→ 0.7%, 0.65, i
COc1cc(NC(=O)C(C)C)ccc1NC(=O)c1ccco1
→ 4.9%, -0.78, i
COc1ccccc1N1C(=O)CC(Sc2nc(C)cc(C)n2)C1=O (stereo not given)
→ 0.9%, -0.23, i
CCN1CCN(Cc2ccc(NC(=O)Nc3ccccc3Cl)cc2)CC1
→ 1.1%, 0.03, i
COc1ccc(C(=O)Nc2ccccc2-c2nnn(CC(=O)NCc3ccco3)n2)cc1
→ -0.5%, -0.57, i
COc1ccc(-c2ccc(SCC(=O)NCc3ccco3)nn2)cc1OC
→ -3.5%, -0.22, i
O=C(O)CCCNC(=O)c1cncc(Br)c1
→ -1.5%, -0.47, i
COc1ccccc1N1CCN(C(=O)C(NS(=O)(=O)c2cccs2)c2ccccc2)CC1 (stereo not given)
→ 0.5%, 0.21, i
Cc1csc(NC(=O)CCC(=O)N(CC(=O)NC2CCCC2)Cc2ccco2)n1
→ 0.1%, -1.29, i
O=C(O)COc1ccc2nsnc2c1Cl
→ -6.2%, 1.29, i
CCOC(=O)c1c(=O)n(O)c2ccc(C)cc2[n+]1[O-]
→ -2.7%, 1.05, i
O=C(CCCc1c[nH]c2ccccc12)N1CCN(c2ccc(N3CCOCC3)nn2)CC1
→ 6.9%, -1.57, i
O=C(c1cccc(C(=O)N2CCc3ccccc32)n1)N1CCc2ccccc21
→ 4.5%, -0.58, i
Cc1ccc(S(=O)(=O)N2CCCC2C(=O)Nc2nccs2)cc1 (stereo not given)
→ 9.9%, -0.59, i
CCCCOC(=O)Cn1c(=O)c2c(nc(Br)n2Cc2ccccc2)n(C)c1=O
→ -12.4%, 0.07, i
COC(=O)c1ccc(CSc2nc3ccccc3c(=O)n2-c2cccc(OC)c2)o1
→ -0.7%, 0.13, i
N#CC1=C(N)Oc2c(sc3ccccc23)C1c1ccco1 (stereo not given)
→ -87.6%, 0.49, i
Cc1nc(N)sc1-c1csc(NCc2ccccc2)n1
→ -4.0%, nt, i
COc1ccccc1N1Cc2ccccc2C1
→ -1.7%, nt, i
Cc1ccc(-c2ccc(=O)n(CC(=O)N3CCN(c4cc(Cl)ccc4C)CC3)n2)cc1
→ 2.7%, nt, i
Cc1ccc2[nH]c(=O)c(CN(Cc3cccnc3)Cc3nnnn3CCN3CCOCC3)cc2c1
→ -7.7%, 1.3, i
COc1ccc(OC)c(C(c2nnnn2C2CCCC2)N2CCN(c3ccccc3)CC2)c1 (stereo not given)
→ -3.3%, -1.19, i

Individual results from the list.
Reading of O=S(=O)(NCC1OCCc2ccccc21)c1ccc(S(=O)(=O)N2CCOCC2)cc1 (stereo not given) under WNV NS2B-NS3 inh: 2.21
Reading of CCOc1cccc(-c2nnc3sc(-c4ccco4)nn23)c1 under WNV NS2B-NS3 inh: -0.71
Reading of CCn1c(C(=O)Nc2ccsc2C(=O)OC)cc2sc(Cl)cc21 under WNV NS2B-NS3 inh: 0.65
Reading of COc1ccc(-c2ccc(SCC(=O)NCc3ccco3)nn2)cc1OC under Hsc70: -3.5%
Reading of COc1ccccc1N1CCN(C(=O)C(NS(=O)(=O)c2cccs2)c2ccccc2)CC1 (stereo not given) under Hsc70: 0.5%

Some entries already given, showing only MT1-MMP reporter and Hsc70.
compound | MT1-MMP reporter | Hsc70
CN(C)c1ccc(-c2nc3ccccc3n2C)cc1 | + | -3.6%
COc1cccc(CNC(=O)CN(c2cc(C)cc(C)c2)S(=O)(=O)c2c(C)noc2C)c1 | i | -3.3%
COc1ccc(CNc2ccccc2SC)cc1OC | i | 2.0%

Next results follow:
Every second line gives: Hsc70, WNV NS2B-NS3 inh, MT1-MMP reporter
CCN1C(=O)CC(N2CCN(C(c3ccccc3)c3ccccc3)CC2)C1=O (stereo not given)
→ 2.8%, 0.59, i
O=C(Cc1cccs1)N1CCCC(c2nc3c(nnn3Cc3ccc(F)cc3)c(=O)[nH]2)C1 (stereo not given)
→ 2.5%, -0.23, i
Cc1cccc(-n2ncc3c(N4CCc5ccccc54)ncnc32)c1
→ 4.0%, 0.87, i
O=C(O)CCC(=O)N1CCN(c2cccc(Cl)c2)CC1
→ 0.5%, -0.9, i
CCCS(=O)(=O)c1c(S(=O)(=O)CCC)c2cnccn2c1C(=O)c1ccc(CC)cc1
→ 3.7%, nt, i
c1ccc2c(-c3nc(-c4ccncc4)no3)cccc2c1
→ -3.4%, 0.1, i
CC1CCN(C(=O)Cn2c(SCC(=O)Nc3nccs3)nc3ccccc32)CC1
→ 1.0%, 1.59, i
CC(=O)c1ccc(OCC(O)CN2CCN(c3ccccn3)CC2)cc1 (stereo not given)
→ -3.1%, -0.7, i
O=C(Nc1ccc(N2CCOCC2)cc1)c1cnsn1
→ -5.2%, 1.27, +
COc1ccc(NC(=O)CSc2nnc(CNC(=O)COc3ccc(Cl)cc3)o2)c(OC)c1
→ 6.0%, -0.13, i
O=c1ccc2cc(S(=O)(=O)Nc3ccc(F)cc3)ccc2o1
→ 7.0%, -0.39, i
COc1ccccc1N1CCN(c2cc(C)nc3nc(C)nn23)CC1
→ -1.8%, 0.75, i
COc1cccc(NC(=O)C2CCCN2C(=O)Nc2cccc(F)c2)c1 (stereo not given)
→ -1.9%, -0.03, i
CCCCCCn1c(SCC(=O)c2ccccc2)nc2c1c(=O)[nH]c(=O)n2C
→ 1.6%, 0.35, i
Cc1cccc(OCc2nc(-c3ccccn3)n[nH]2)c1
→ -0.3%, nt, i
O=C(Cc1cccs1)Nc1nnc(SCC(=O)NC2CCCCC2)s1
→ -9.9%, -1.58, i
CCOC(=O)C(CCCOc1ccccc1C)C(=O)OCC
→ 0.1%, nt, i
CC1CCC(C(C)C)C(OC(=O)C2=C3c4ccccc4S(=O)(=O)N3CC2)C1 (stereo not given)
→ -0.3%, nt, i
Cc1nc2ccccc2cc1C(=O)O
→ -0.1%, nt, i
COCCn1c(Cc2ccccc2)nnc1SCC(=O)N(C)C
→ -1.2%, -0.39, i
